VACV Venus inh: vaccinia inhibition (Venus reporter) | Vaccinia virus Venus reporter expression, fluorescence | Potency, µM (highest dose often 36.5 µM), without a hit: at the highest dose activity change, negative = inhibition, most hits filed as inhibitors | 330,000 compounds, 0.46% hits; active means well fitted inhibition curve with a large enough effect; inconclusive means small, poorly fitted or top-dose-only effect; inactive means no such curve, though single readings can be large or run the other way; tested in A549 cells; further: nearly all actives have a fitted effect of over 30% in size; inactives centre near -10
Vaccinia mCherry: inhibitors of vaccinia virus infection (mCherry reporter signal). Vaccinia virus mCherry reporter infection, fluorescence; about a quarter of the inactives have no number. AID 720579. 310,000 compounds, 0.63% hits. Potency, µM (series often up to 36.5 µM), for inactives: top-dose activity change, negative = inhibition, actives largely listed as inhibitors; active = well fitted inhibition curve with a large enough effect; inconclusive = small, poorly fitted or top-dose-only effect; inactive = no such curve, though single readings can be large or run the other way; tested in A549 cells; further: nearly all actives have a fitted effect of over 35% in size; inactives centre near -10
Active calls of the source: *; i = inactive; ? = inconclusive; / = no result given; [ ] = another dose, or the depositor's remark. On the % scale 0 is the no-effect control and ±100 the full control effect; potency means the concentration at half of the fitted maximal effect.

[1] CN(c1cccc(NC(=O)Cc2ccccc2)c1)S(C)(=O)=O
[2] c1csc(CNc2ccn3nc(-c4ccc(OCCN5CCOCC5)cc4)cc3n2)c1
[3] CN(C)c1ccc(/C=C2\CC3C4CC=C5CC(O)CCC5(C)C4CCC3(C)C2=O)cc1 (stereo not given)
[4] O=C(c1ccc(Cl)c(S(=O)(=O)N2CCCCCC2)c1)N1CCCC(C(F)(F)F)C1 (stereo not given)
[5] Nc1nc(Cl)nc2c1ncn2C1CCC(CO)O1 (stereo not given)
[6] CN1CCCN(C(=O)COc2ccc(F)cc2Cl)CC1
[7] CN(C)c1[nH]c(=O)c(C#N)c2c1CCN2Cc1ccccc1
[8] N/C(=N\OC(=O)Nc1ccccc1)c1ncc(C(F)(F)F)cc1Cl
entry no. | 1 | 2 | 3 | 4 | 5 | 6 | 7 | 8
VACV Venus inh | -5.9% | -13.1% | -12.1% | -21.9% | 1.7% | -5.7% | ? | -24.9%
Vaccinia mCherry | i | -19.8% | i | -6.8% | 3.0% | -10.7% | -21.3% | /

[9] Cc1cccn2c(=O)c(C(=O)NCc3cccc(F)c3)cnc12
[10] O=C1c2ccccc2NC2CCCCC12 (stereo not given)
[11] C=CCOc1ccc(C(=O)CC)cc1OC
[12] CCOC(=O)c1c(C)[nH]c(C(=O)NCCc2ccc(OC)c(OC)c2)c1C
[13] C[C@H](CO)N1C[C@H](C)[C@@H](CN(C)S(=O)(=O)c2ccc3ccccc3c2)OCc2cn(nn2)CCCC1=O
[14] Cc1cc(NC(=O)c2cccc(S(=O)(=O)N3CCOCC3)c2)c2ccccc2n1
[15] COc1ccc2cc(CCNC(=O)c3ccc(Br)o3)c(=O)[nH]c2c1
[16] COC(=O)C1=CN(c2ccc(N3CCOCC3)cc2)C(N)=C(C#N)C1c1ccccc1 (stereo not given)
entry no. | 9 | 10 | 11 | 12 | 13 | 14 | 15 | 16
VACV Venus inh | ? | -14.0% | 9.6% | -5.5% | ? | ? | -19.4% | -22.6%
Vaccinia mCherry | ? | -12.1% | i | -9.4% | -25.8% | -10.9%[1.46 µM] | i | ?

[17] COc1ccc(-c2cc3ccccc3oc2=O)cc1NC(=O)c1cccnc1
[18] CC(=O)Nc1ccc(C(=O)NC(C)c2ccc(-n3ccnc3)cc2)cc1 (stereo not given)
[19] O=C(O)CCn1cc(/C=C2\SC(=S)NC2=O)c(-c2ccccc2)n1
[20] COc1ccc(NC(=O)Nc2ccc(OC)c(OC)c2)c([N+](=O)[O-])c1
[21] CC1CCCCN1S(=O)(=O)c1ccccc1[N+](=O)[O-] (stereo not given)
[22] Cc1ccc(N2CC(C(=O)OCc3nnc(-c4ccccc4)o3)CC2=O)cc1 (stereo not given)
[23] CCCCNC(=O)c1ccc(CS(=O)(=O)c2ccc(OC)cc2)o1
[24] CS(=O)(=O)Nc1cccc(C2=NN(S(=O)(=O)c3ccccc3)C(c3cccs3)C2)c1 (stereo not given)
entry no. | 17 | 18 | 19 | 20 | 21 | 22 | 23 | 24
VACV Venus inh | -12.4% | -8.5% | 3.0% | -10.3% | -6.3% | -12.5% | -10.9% | -14.2%
Vaccinia mCherry | i | i | i | -16.1% | i | i | -11.3% | -18.6%

[25] Cc1cc(C)n(CC(=O)n2c3ccccc3c3ccccc32)n1
[26] O=C(CCc1nc2ccccc2[nH]1)Nc1ccccc1
[27] COc1ccc(CCN=C(N)NS(=O)(=O)c2ccc(C)cc2)cc1
[28] COC(=O)[C@@]1(Cc2ccc(OC)cc2)[C@H]2c3cc(C(=O)N4CCCC4)n(Cc4ccc(OC(F)(F)F)cc4)c3C[C@H]2CN1C(=O)c1ccccc1
[29] CCCCSc1nnc([C@@H]2CCCN2C(=O)OC(C)(C)C)o1
[30] Cc1nc2c(OCCOc3ccccc3)cccn2c1N(C)C(=O)CCC1CCCC1
[31] CC(Cc1ccco1)NC(=O)c1ccc(C(F)(F)F)cc1 (stereo not given)
[32] COc1ccc(Cn2c(=O)n(-c3ccc(C)cc3)c(=O)c3c2c2cc(C)ccc2n3C)cc1
entry no. | 25 | 26 | 27 | 28 | 29 | 30 | 31 | 32
VACV Venus inh | -8.6% | -8.1% | -11.7% | ? | 0.0% | -29.8% | -25.0% | -4.5%
Vaccinia mCherry | / | -13.7% | -11.3% | ? | / | -11.8% | 19.4% | -10.4%

7 compounds from above, sorted by count of non-hydrogen atoms, low to high:
[26] O=C(CCc1nc2ccccc2[nH]1)Nc1ccccc1
[31] CC(Cc1ccco1)NC(=O)c1ccc(C(F)(F)F)cc1 (stereo not given)
[25] Cc1cc(C)n(CC(=O)n2c3ccccc3c3ccccc32)n1
[23] CCCCNC(=O)c1ccc(CS(=O)(=O)c2ccc(OC)cc2)o1
[24] CS(=O)(=O)Nc1cccc(C2=NN(S(=O)(=O)c3ccccc3)C(c3cccs3)C2)c1 (stereo not given)
[30] Cc1nc2c(OCCOc3ccccc3)cccn2c1N(C)C(=O)CCC1CCCC1
[28] COC(=O)[C@@]1(Cc2ccc(OC)cc2)[C@H]2c3cc(C(=O)N4CCCC4)n(Cc4ccc(OC(F)(F)F)cc4)c3C[C@H]2CN1C(=O)c1ccccc1
entry no. | 26 | 31 | 25 | 23 | 24 | 30 | 28
VACV Venus inh | -8.1% | -25.0% | -8.6% | -10.9% | -14.2% | -29.8% | ?
Vaccinia mCherry | -13.7% | 19.4% | / | -11.3% | -18.6% | -11.8% | ?

Later entries.
[33] CCC(=O)Nc1ccc2nc(SCCOc3ccc(C)cc3)sc2c1
[34] CCc1nnc(NC(=O)c2cc(=O)c3cc(C)c(C)cc3o2)s1
[35] CCC[C@@H](O)c1cc2cc(OC)c(OC)cc2c(=O)o1
[36] O=S1(=O)C=C(SCc2ccccc2)Nc2ccccc21
[37] CCC(=O)N1CCN(c2ccc(Cl)cc2NC(=S)NC(=O)c2ccco2)CC1
[38] Cc1cc(NS(=O)(=O)c2ccc(Nc3nc(-c4ccc(O)cc4)cs3)cc2)no1
[39] CC1CCCN(c2ncnc3c2cnn3-c2ccccc2)C1 (stereo not given)
[40] CCc1ccc(NC(=O)CN2C(=O)c3cccc4cccc2c34)cc1
entry no. | 33 | 34 | 35 | 36 | 37 | 38 | 39 | 40
VACV Venus inh | -6.2% | -9.0% | -21.2% | ? | -6.4% | -11.4% | -15.2% | 7.5%
Vaccinia mCherry | -12.3% | -3.5% | -12.7% | / | -8.7% | -1.0% | -2.9% | -11.3%

3 entries picked at random from the list so far, as already listed:
[35] CCC[C@@H](O)c1cc2cc(OC)c(OC)cc2c(=O)o1
[34] CCc1nnc(NC(=O)c2cc(=O)c3cc(C)c(C)cc3o2)s1
[39] CC1CCCN(c2ncnc3c2cnn3-c2ccccc2)C1 (stereo not given)
entry no. | 35 | 34 | 39
VACV Venus inh | -21.2% | -9.0% | -15.2%
Vaccinia mCherry | -12.7% | -3.5% | -2.9%

Other records.
[41] CCc1cc(=O)oc2c(C)c(OC(C)C(=O)NCC3CCC(C(=O)O)CC3)ccc12 (stereo not given)
[42] COC(=O)C(NC(=O)CC(C)C)(Nc1nc2c(s1)CCCC2)C(F)(F)F (stereo not given)
[43] O=S(=O)(Cc1ccccc1)NCCc1cccc(Cl)c1
[44] CCn1nnc(NC(=O)c2cc3ccccc3o2)n1
[45] COc1ccc(OC)c(N(CC(=O)NC2CCCCCC2)S(=O)(=O)c2ccc(C)cc2)c1
[46] CC(=O)N1CCc2cc(S(=O)(=O)CCC(=O)N3CCN(c4cc(C)ccc4C)CC3)ccc21
[47] O=C(O)c1ccc(C=NN2CCCCCC2)cc1
[48] COC(=O)c1ccc(OC(=O)c2ccco2)cc1
entry no. | 41 | 42 | 43 | 44 | 45 | 46 | 47 | 48
VACV Venus inh | -5.8% | -16.2% | 10.9% | -2.1% | -11.9% | -14.1% | -7.1% | -6.4%
Vaccinia mCherry | -3.1% | -6.7% | i | -15.4% | -20.3% | i | -16.8% | -5.6%

[49] CCc1cccc2c(-c3ccccc3)nc(SCC(=O)Nc3ccc(OC)cc3)nc12
[50] O=C1/C(=C/c2cccnc2)SC(=S)N1CC1CCCO1 (stereo not given)
[51] Cc1ccc(NC(=S)NCc2ccc3[nH]c4c(c3c2)CCCC4)cc1
[52] COc1cc(CNCCSc2nnnn2C)ccc1OCc1ccc(C)cc1
[53] Cc1ccc2onc(CC(=O)Nc3cccc(C(F)(F)F)c3)c2c1
[54] CC(C)Cn1c(=O)c2ccccc2n2c(CCC(=O)NC(C)c3ccccc3)nnc12 (stereo not given)
[55] COC(=O)c1ccc(NC(=O)c2cc(Cl)ccc2OC)cc1
[56] CC(C)(C)NC(=O)CC1C[C@H](C(=O)N2CCOCC2)[C@@]2(CCC3CCCC3)c3[nH]c4ccccc4c3CCN2C1=O (stereo not given in full)
entry no. | 49 | 50 | 51 | 52 | 53 | 54 | 55 | 56
VACV Venus inh | 4.3% | -2.4% | -2.3% | -13.4% | -4.2% | -12.4% | 6.4% | -1.5%
Vaccinia mCherry | 7.8% | -11.8% | ? | -15.9% | -14.5% | -16.2% | -13.5% | -1.2%

[57] Cc1csc2nc(-c3cccc(NC(=O)c4c(F)cccc4F)c3)cn12
[58] CCc1cccc(NC(=O)CCNC(=O)Cn2ccc3ccccc3c2=O)c1
[59] Cc1ccc(N(CC(=O)NC2CCCC2)C(=O)c2nsc(Cl)c2Cl)cc1
[60] O=C(CCN1C(=O)c2ccccc2C1=O)NCc1cccc(Cl)c1
[61] O=C(O)c1cccnc1SC1CC(=O)N(c2ccccc2)C1=O (stereo not given)
[62] Cc1c(C=N)c(O)n(C)c(=O)c1C#N
[63] CC1=C(C(=O)O)N2C(=O)C(NC(=O)c3ccn(C)n3)C2SC1 (stereo not given)
[64] COc1ccc(CN2CCc3nc(SCC(=O)Nc4cc(C)cc(C)c4)[nH]c(=O)c3C2)cc1
entry no. | 57 | 58 | 59 | 60 | 61 | 62 | 63 | 64
VACV Venus inh | -7.4% | -2.8% | 1.9% | -7.2% | -0.6%[7.34 µM] | -9.4% | -12.3% | -1.8%
Vaccinia mCherry | -12.2% | -11.2% | i | -5.5% | -3.1%[7.34 µM] | i | / | -12.2%

[65] COC(=O)[C@@]12CCCCN1[C@H](c1ccc(-c3ccc(OC)cc3)c(OC)c1)[C@@H]1C(=O)N(C)C(=O)[C@@H]12
[66] CCOc1ccccc1-n1c(SCC(=O)NC(C)CC)nnc1-c1ccoc1C (stereo not given)
[67] COc1ccc(CCN2C(=O)CSCC2(C)C(=O)Nc2ccc3c(c2)OCCO3)cc1OC (stereo not given)
[68] CSc1nn(Cc2cccc(C)c2)c(N)c1S(=O)(=O)c1ccccc1
[69] COc1ccc(C(=O)Nc2ccc(-c3cc4ccccc4oc3=O)c(C)c2)cc1Br
[70] Cc1ccc(C)c(NC(=O)C(=O)NCC(c2cccnc2)N2CCN(c3ccc(F)cc3)CC2)c1 (stereo not given)
[71] COc1cc([C@@H]2CC=C(C(=O)O)[C@H](c3ccc(F)cc3)N2S(=O)(=O)c2ccc(C)cc2)cc(OC)c1OC
[72] Cc1nc(NC(=S)NC(=O)COc2ccccc2Cl)ccc1Br
entry no. | 65 | 66 | 67 | 68 | 69 | 70 | 71 | 72
VACV Venus inh | ? | -4.6% | -18.1% | -23.6% | -27.3% | ? | -4.3% | -5.3%
Vaccinia mCherry | -27.1% | -14.7% | -24.3% | i | i | -28.4% | i | -11.9%

[73] O=C(Nc1ccc(NC(=O)C2CC2)cn1)c1ccccc1Cl
[74] O=C(Cn1cnc2ccc(Cl)cc2c1=O)NC1CCS(=O)(=O)C1 (stereo not given)
[75] CC1CCN(c2nn3c(=O)c(C(=O)NC(C)C)cnc3s2)CC1
[76] CCCS(=O)(=O)c1nc(S(=O)(=O)c2ccc(C)cc2)c(NCCCN2CCOCC2)s1
[77] CCc1nnc(NC(=O)CCC(=O)N2CCN(c3cc(Cl)ccc3C)CC2)s1
[78] O=C(NCCCN1CCOCC1)/C(=C/c1cccs1)NC(=O)c1ccccc1
[79] O=C(N/N=C/c1cccs1)c1cc(-c2ccncc2)nc2ccccc12
[80] O=C(CN1CC[n+]2c(-c3cccs3)csc21)c1ccc(Br)cc1
entry no. | 73 | 74 | 75 | 76 | 77 | 78 | 79 | 80
VACV Venus inh | 0.1% | 2.4% | 0.5% | -7.8% | -16.2% | -2.2% | ? | 1.6%
Vaccinia mCherry | -15.2% | i | -3.3% | -11.0% | -2.8% | 2.3% | -3.9% | -11.1%

[81] CCCC[C@H](CC(=O)c1ccccc1)[C@@H](OC(C)=O)C(=O)Oc1c(C(C)C)cccc1C(C)C
[82] COc1cccc(NC(=O)Cn2nnc(-c3ccccc3N)n2)c1
[83] CCc1nc2ccc(C(=O)NCCc3ccc(SC)cc3)cc2nc1CC
[84] COc1cc(-c2cc3n(C)c(C)c(CCC(=O)Nc4ccc(F)cc4)c(=O)n3n2)cc(OC)c1OC
[85] COc1ccc(-c2nc(CS(=O)CC(=O)N3CCCC3)c(C)o2)cc1 (stereo not given)
[86] Cc1ccc(OCC(=O)N(Cc2ccco2)c2ccccn2)cc1
[87] O=C(NNC(=S)NC1CCCCC1)c1ccc2c(c1)OCO2
[88] CCOC(=O)CSC1=Nc2ccccc2C2=NC(CC(=O)NCc3ccccc3)C(=O)N12 (stereo not given)
entry no. | 81 | 82 | 83 | 84 | 85 | 86 | 87 | 88
VACV Venus inh | -8.8% | -1.7% | -10.2% | -2.2% | 13.6% | -3.7% | -14.7% | -10.9%
Vaccinia mCherry | ? | -12.4% | -9.7% | -7.2% | -0.4% | -3.3% | -14.8% | -15.8%

Screening data: PubChem, National Center for Advancing Translational Sciences (NCATS)
